Assay outcomes from PubChem BioAssay.
A1 apoptosis 2 = compounds inhibiting A1, read as caspase activation | MEF A1-2A-BIM cells, caspase-Glo luminescence, 3 h; percent of clofoctol response, DMSO zero | caspase activation, % (concentration not given with the values) | 24,000 tested, under 10 active | AID 2465; in the data active = caspase activation above about 5.9%;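 note: wells of about 30 µL received 50 nL stock; the first replicate is given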
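system = A1-2A-BIM-expressing MEF cells | quantity = 2500 MEF cells/well | dosing = 50 nL compound per well, pinned | schedule = overnight cell settling, then 3 h compound exposure, 37 °C | signal = luminescence from DEVD-luciferin Caspase-Glo reagent, 1:1 in 50 mM HEPES, 1 h RT | read-out = Caspase-3/7 activation, seen as rise in luminescence signal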
Starred values were filed as active, the others as inactive. Not all compounds are listed; count on the stated rates, not on these rows.

SMILES	A1 apoptosis 2
CNC[C@H]1Oc2c(NC(=O)Nc3ccc(C(F)(F)F)cc3)cccc2C(=O)N([C@@H](C)CO)C[C@@H]1C	0.8
CNC[C@H]1Oc2ccc(NC(=O)Nc3ccc(F)cc3)cc2C(=O)N([C@@H](C)CO)C[C@@H]1C	-0.8
CNC[C@H]1Oc2c(NS(=O)(=O)c3c(C)noc3C)cccc2C(=O)N([C@@H](C)CO)C[C@H]1C	0.3
O=C(O)CCCCCCC(=O)N=NC=C1C=CN(O)C=C1	0.7
Cc1ccc(S(=O)(=O)Nc2ccc3c(c2)C(=O)N([C@@H](C)CO)C[C@H](C)[C@H](CN(C)S(=O)(=O)c2ccc(F)cc2)OCCCC[C@@H](C)O3)cc1	-0.1
CNC[C@H]1Oc2ccc(NC(=O)Cn3cnnn3)cc2CC(=O)N([C@@H](C)CO)C[C@@H]1C	-0.3
C[C@H](CO)N1C[C@H](C)[C@H](CN(C)S(=O)(=O)c2ccccc2)OCCCC[C@H](C)Oc2ccc(NC(=O)CCC(F)(F)F)cc2C1=O	-1.7
C[C@@H]1CN([C@H](C)CO)C(=O)CCCn2cc(nn2)CO[C@@H]1CN(C)C(=O)NC1CCCC1	-0.1
O=C(N1CCOCC1)[C@@]1(CCS(=O)(=O)c2ccccc2)COC(c2ccc(OCCCO)cc2)=N1	-0.2
COc1ccc(S(=O)(=O)Nc2ccc3c(c2)CC(=O)N([C@H](C)CO)C[C@H](C)[C@H](CN(C)C(=O)Nc2ccc4c(c2)OCO4)O3)cc1	0.3
COc1ccc(S(=O)(=O)Nc2ccc3c(c2)C(=O)N([C@H](C)CO)C[C@H](C)[C@@H](CN(C)S(=O)(=O)c2ccc(Cl)cc2)OCCCC[C@H](C)O3)cc1	0.3
CC(C)NC(=O)N(C)C[C@H]1OCCCC[C@H](C)Oc2ccc(NC(=O)Nc3ccc(F)cc3)cc2C(=O)N([C@@H](C)CO)C[C@H]1C	-0.2
Cc1ccc(S(=O)(=O)Nc2ccc3c(c2)C(=O)N([C@@H](C)CO)C[C@@H](C)[C@H](CN(C)S(=O)(=O)c2ccccc2)O3)cc1	-0.6
COc1ccc(S(=O)(=O)Nc2cccc3c2O[C@@H](CN(C)Cc2ccncc2)[C@H](C)CN([C@@H](C)CO)C3=O)cc1	1.0
C[C@@H]1CN([C@@H](C)CO)C(=O)Cc2cc(NC(=O)CCCCCC(=O)Nc3ccccc3N)ccc2O[C@H]1CN(C)S(=O)(=O)c1ccc(Cl)cc1	0.4
C[C@@H]1CN([C@@H](C)CO)C(=O)Cc2cc(NC(=O)Nc3ccc(C(F)(F)F)cc3)ccc2O[C@H]1CN(C)S(=O)(=O)c1ccccc1	-0.1
C[C@H]1CN([C@@H](C)CO)C(=O)c2cccc(NS(=O)(=O)c3ccc(Cl)cc3)c2O[C@@H]1CN(C)Cc1ccc(C(=O)Nc2ccccc2N)cc1	0.1
COc1ccc(NC(=O)Nc2cccc3c2O[C@@H](CN(C)S(=O)(=O)c2cccs2)[C@H](C)CN([C@H](C)CO)C3=O)cc1	-0.6
C[C@@H]1CN([C@H](C)CO)C(=O)c2cccc(NC(=O)Nc3ccccc3)c2O[C@@H]1CN(C)C(=O)NC1CCCCC1	0.3
C[C@@H]1CN([C@H](C)CO)C(=O)c2cc(NS(=O)(=O)c3ccc(F)cc3)ccc2O[C@@H]1CN(C)C	-0.3
C[C@@H]1CN([C@@H](C)CO)C(=O)c2cc(NC(=O)Cc3ccccc3)ccc2O[C@H]1CN(C)S(=O)(=O)c1cccs1	0.7
C[C@H](CO)N1C[C@H](C)[C@@H](CN(C)C(=O)Nc2ccccc2)Oc2c(NC(=O)Nc3ccc(F)cc3)cccc2C1=O	-0.6
C[C@H](CO)N1C[C@H](C)[C@@H](CN(C)S(C)(=O)=O)Oc2ccc(NC(=O)c3ccncc3)cc2CC1=O	-1.2
C[C@@H]1CCCCO[C@H](CN(C)C(=O)c2ccncc2)[C@H](C)CN([C@H](C)CO)C(=O)c2cc(NS(=O)(=O)c3ccccc3)ccc2O1	1.1
C[C@H](CO)N1C[C@H](C)[C@H](CN(C)C(=O)Nc2cccc3ccccc23)Oc2ccc(NC(=O)CCCN(C)C)cc2C1=O	-1.0
CC(C)NC(=O)Nc1ccc2c(c1)C(=O)N([C@H](C)CO)C[C@@H](C)[C@@H](CN(C)C)OCCCC[C@@H](C)O2	-1.0
C[C@@H]1CN([C@H](C)CO)C(=O)c2cc(NC(=O)c3ccncc3)ccc2O[C@@H]1CN(C)S(=O)(=O)c1ccc(F)cc1	0.0
Cc1noc(C)c1NC(=O)Nc1ccc2c(c1)C(=O)N([C@H](C)CO)C[C@H](C)[C@H](CN(C)C(=O)c1ccccc1)OCCCC[C@H](C)O2	-0.8
CNC[C@H]1Oc2ccc(NC(=O)Nc3ccc(OC)cc3)cc2CC(=O)N([C@@H](C)CO)C[C@@H]1C	0.1
C[C@@H]1CN([C@@H](C)CO)C(=O)CCCn2nncc2CO[C@@H]1CN(C)Cc1ccc2c(c1)OCCO2	-0.3

Some of the entries so far, in CSV form:
Molecule,A1 apoptosis 2
CC(C)NC(=O)Nc1ccc2c(c1)C(=O)N([C@H](C)CO)C[C@@H](C)[C@@H](CN(C)C)OCCCC[C@@H](C)O2,-1.0
COc1ccc(NC(=O)Nc2cccc3c2O[C@@H](CN(C)S(=O)(=O)c2cccs2)[C@H](C)CN([C@H](C)CO)C3=O)cc1,-0.6
CNC[C@H]1Oc2ccc(NC(=O)Cn3cnnn3)cc2CC(=O)N([C@@H](C)CO)C[C@@H]1C,-0.3
C[C@@H]1CN([C@@H](C)CO)C(=O)Cc2cc(NC(=O)Nc3ccc(C(F)(F)F)cc3)ccc2O[C@H]1CN(C)S(=O)(=O)c1ccccc1,-0.1
COc1ccc(S(=O)(=O)Nc2ccc3c(c2)CC(=O)N([C@H](C)CO)C[C@H](C)[C@H](CN(C)C(=O)Nc2ccc4c(c2)OCO4)O3)cc1,0.3

(next part)
SMILES	A1 apoptosis 2
C[C@@H]1CCCCO[C@@H](CN(C)C(=O)Nc2ccc3c(c2)OCO3)[C@@H](C)CN([C@@H](C)CO)C(=O)c2cc(NC(=O)CCC(F)(F)F)ccc2O1	1.3
C[C@@H]1CN([C@H](C)CO)C(=O)Cc2cc(NC(=O)c3ccncc3)ccc2O[C@@H]1CN(C)CC1CCCCC1	-1.0
C[C@@H]1CCCCO[C@H](CN(C)S(=O)(=O)c2cn(C)cn2)[C@H](C)CN([C@@H](C)CO)C(=O)c2cc(NC(=O)NC3CCCCC3)ccc2O1	1.1
Cc1noc(C)c1S(=O)(=O)Nc1ccc2c(c1)C(=O)N([C@@H](C)CO)C[C@H](C)[C@@H](CN(C)S(=O)(=O)c1ccc(F)cc1)OCCCC[C@H](C)O2	-0.6
COc1ccc(S(=O)(=O)Nc2ccc3c(c2)C(=O)N([C@H](C)CO)C[C@@H](C)[C@H](CN(C)Cc2ccc(C(=O)O)cc2)O3)cc1	1.7
C[C@@H]1CN([C@H](C)CO)C(=O)c2cc(NS(=O)(=O)c3cn(C)cn3)ccc2O[C@@H](C)CCCCO[C@@H]1CN(C)C(=O)CCC(F)(F)F	-0.8
C[C@@H]1CN([C@@H](C)CO)C(=O)c2cc(NC(=O)c3ccncc3)ccc2O[C@@H](C)CCCCO[C@@H]1CN(C)C(=O)CCC(F)(F)F	0.5
COc1ccc(CN(C)C[C@@H]2OCCCC[C@H](C)Oc3ccc(NS(=O)(=O)c4ccc(F)cc4)cc3C(=O)N([C@H](C)CO)C[C@@H]2C)cc1	-0.6
C[C@@H]1CN([C@@H](C)CO)C(=O)c2cccc(NC(=O)C3CC3)c2O[C@H]1CN(C)Cc1ccc(Oc2ccccc2)cc1	-1.4
CCO[C@@H]1OC(C(=O)N2CCN(Cc3ccc4c(c3)OCO4)CC2)=C[C@H](C)[C@H]1CCCO	-0.8
C[C@@H]1CN([C@H](C)CO)C(=O)Cc2cc(NS(=O)(=O)c3cn(C)cn3)ccc2O[C@H]1CN(C)Cc1ccc(-c2ccccc2)cc1	1.6
C[C@H](CO)N1C[C@H](C)[C@H](CN(C)C)Oc2ncc(C#Cc3ccccc3)cc2C1=O	0.0
C[C@H]1CN([C@@H](C)CO)C(=O)Cc2cc(NC(=O)Cn3cnnn3)ccc2O[C@H]1CN(C)C(=O)NC1CCCCC1	0.3
Cc1noc(C)c1S(=O)(=O)Nc1ccc2c(c1)C(=O)N([C@H](C)CO)C[C@H](C)[C@H](CN(C)C(=O)Cc1ccccc1)OCCCC[C@H](C)O2	-0.6
CC(C)NC(=O)Nc1ccc2c(c1)C(=O)N([C@@H](C)CO)C[C@@H](C)[C@@H](CN(C)Cc1ccccc1)OCCCC[C@@H](C)O2	0.7
C[C@H]1CN([C@@H](C)CO)C(=O)c2cccc(NS(=O)(=O)c3ccc(Cl)cc3)c2O[C@@H]1CN(C)Cc1ccc(Oc2ccccc2)cc1	1.0
CC(C)NC(=O)Nc1ccc2c(c1)C(=O)N([C@H](C)CO)C[C@H](C)[C@H](CN(C)Cc1ccc(C(=O)Nc3ccccc3N)cc1)OCCCC[C@@H](C)O2	1.4
C[C@@H]1CCCCO[C@@H](CN(C)CC2CCCCC2)[C@H](C)CN([C@@H](C)CO)C(=O)c2cc(NS(=O)(=O)c3cn(C)cn3)ccc2O1	0.5
COc1ccc(-c2cnc3c(c2)C(=O)N([C@H](C)CO)C[C@H](C)[C@H](CN(C)S(=O)(=O)c2ccc(F)cc2)O3)cc1	0.2
COc1ccc(S(=O)(=O)N(C)C[C@@H]2Oc3ccc(NC(=O)CCCN(C)C)cc3C(=O)N([C@@H](C)CO)C[C@H]2C)cc1	-0.2

Gathered by group: those above with a COOH group.
SMILES	A1 apoptosis 2
O=C(O)CCCCCCC(=O)N=NC=C1C=CN(O)C=C1	0.7
COc1ccc(S(=O)(=O)Nc2ccc3c(c2)C(=O)N([C@H](C)CO)C[C@@H](C)[C@H](CN(C)Cc2ccc(C(=O)O)cc2)O3)cc1	1.7

Arranged by SMILES length (low to high): part of the list above.
SMILES	A1 apoptosis 2
C[C@H](CO)N1C[C@H](C)[C@@H](CN(C)C(=O)Nc2ccccc2)Oc2c(NC(=O)Nc3ccc(F)cc3)cccc2C1=O	-0.6
C[C@@H]1CN([C@@H](C)CO)C(=O)Cc2cc(NC(=O)Nc3ccc(C(F)(F)F)cc3)ccc2O[C@H]1CN(C)S(=O)(=O)c1ccccc1	-0.1
Cc1noc(C)c1S(=O)(=O)Nc1ccc2c(c1)C(=O)N([C@H](C)CO)C[C@H](C)[C@H](CN(C)C(=O)Cc1ccccc1)OCCCC[C@H](C)O2	-0.6

Further compounds:
SMILES	A1 apoptosis 2
C[C@@H]1CCCCO[C@@H](CN(C)S(=O)(=O)c2ccccc2)[C@@H](C)CN([C@H](C)CO)C(=O)c2cc(NC(=O)c3ccncc3)ccc2O1	0.8
CC(C)NC(=O)N(C)C[C@@H]1OCCCC[C@H](C)Oc2ccc(NC(=O)Nc3ccc4c(c3)OCO4)cc2C(=O)N([C@H](C)CO)C[C@@H]1C	1.9
C[C@@H]1CN([C@H](C)CO)C(=O)Cc2cc(NC(=O)CCN3CCOCC3)ccc2O[C@@H]1CN(C)S(=O)(=O)c1ccc(Cl)cc1	0.0
C[C@@H]1CCCCO[C@@H](CN(C)CC2CCCCC2)[C@@H](C)CN([C@H](C)CO)C(=O)c2cc(N(C)C)ccc2O1	-0.1
C[C@H](CO)N1C[C@H](C)[C@H](CN(C)Cc2ccccc2)Oc2ccc(NC(=O)C3CC3)cc2C1=O	0.3
C[C@@H]1CN([C@@H](C)CO)C(=O)c2cc(NC(=O)Nc3ccccc3)ccc2O[C@@H](C)CCCCO[C@@H]1CN(C)C(=O)Nc1cccc2ccccc12	-0.2
C[C@@H]1CN([C@@H](C)CO)C(=O)Cc2cc(NC(=O)Nc3ccccc3)ccc2O[C@H]1CN(C)Cc1ccc(C(=O)O)cc1	0.1
C[C@@H]1CN([C@@H](C)CO)C(=O)c2cc(NC(=O)C3CC3)ccc2O[C@@H]1CN(C)C	-1.3
C=C[C@@H](COC(C)=O)NS(=O)(=O)c1ccc(Br)cc1	0.2
C[C@H](CO)N1C[C@H](C)[C@@H](CN(C)Cc2ccc(Cl)c(Cl)c2)Oc2ccc(NS(=O)(=O)c3cccs3)cc2C1=O	-0.2
C[C@H](CO)N1C[C@H](C)[C@@H](CN(C)Cc2ccccc2)Oc2c(NC(=O)C3CCOCC3)cccc2C1=O	0.1
COc1ccc(S(=O)(=O)Nc2ccc3c(c2)C(=O)N([C@@H](C)CO)C[C@H](C)[C@@H](CN(C)CC2CCCCC2)O3)cc1	1.0
C[C@@H]1CN([C@@H](C)CO)C(=O)c2cccc(NC(=O)C3CCCCC3)c2O[C@H]1CN(C)Cc1ccc(C(=O)O)cc1	-0.4
C[C@@H]1CN([C@@H](C)CO)C(=O)c2cc(NC(=O)NC3CCCCC3)ccc2O[C@H]1CN(C)Cc1ccc(C(=O)Nc2ccccc2N)cc1	0.7
C[C@H](CO)N1C[C@H](C)[C@H](CN(C)Cc2ccc(C(=O)Nc3ccccc3N)cc2)Oc2ccc(NS(=O)(=O)c3cn(C)cn3)cc2C1=O	-0.3
CC(C)NC(=O)Nc1ccc2c(c1)C(=O)N([C@@H](C)CO)C[C@H](C)[C@@H](CN(C)CC1CC1)OCCCC[C@H](C)O2	-1.2
Cc1noc(C)c1NC(=O)N(C)C[C@@H]1OCCCC[C@@H](C)Oc2ccc(NC(=O)Nc3ccccc3)cc2C(=O)N([C@H](C)CO)C[C@H]1C	-0.6
COc1ccc(CN(C)C[C@@H]2Oc3c(NC(=O)Nc4c(C)noc4C)cccc3C(=O)N([C@H](C)CO)C[C@H]2C)cc1	-0.3
C[C@H](CO)N1C[C@H](C)[C@H](CN(C)Cc2ccc(C(F)(F)F)cc2)OCc2cn(nn2)CCCC1=O	-0.6
C[C@@H]1CN([C@@H](C)CO)C(=O)Cc2cc(NC(=O)Cn3cnnn3)ccc2O[C@H]1CN(C)S(=O)(=O)c1cccs1	0.4
C[C@H](CO)N1C[C@H](C)[C@@H](CN(C)Cc2ccncc2)Oc2ccc(NC(=O)Cn3cnnn3)cc2C1=O	-0.7
C[C@H]1CCCCO[C@@H](CN(C)Cc2ccccc2)[C@@H](C)CN([C@@H](C)CO)C(=O)c2cc(N(C)C)ccc2O1	0.4
